Bioassay records from PubChem BioAssay.
HNF4A DNA FP: change in binding of human HNF4 alpha to DNA; P41235; HNF4a-FITC DNA binding, fluorescence polarization, 1 h; activity change, % at 10 µM; 360,000 tested, 0.3% active; AID 1224865; in the data active means activity change above about 30%, passing the limit was not always enough;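 further: controls were the assay level and a saturating level of protein; the project sought stronger binding though the title names inhibitors; some compounds called inactive have numbers as strong as hits; positive values seem to mean higher polarization but the record does not say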
Target sequence (P41235 whole entry, looked up): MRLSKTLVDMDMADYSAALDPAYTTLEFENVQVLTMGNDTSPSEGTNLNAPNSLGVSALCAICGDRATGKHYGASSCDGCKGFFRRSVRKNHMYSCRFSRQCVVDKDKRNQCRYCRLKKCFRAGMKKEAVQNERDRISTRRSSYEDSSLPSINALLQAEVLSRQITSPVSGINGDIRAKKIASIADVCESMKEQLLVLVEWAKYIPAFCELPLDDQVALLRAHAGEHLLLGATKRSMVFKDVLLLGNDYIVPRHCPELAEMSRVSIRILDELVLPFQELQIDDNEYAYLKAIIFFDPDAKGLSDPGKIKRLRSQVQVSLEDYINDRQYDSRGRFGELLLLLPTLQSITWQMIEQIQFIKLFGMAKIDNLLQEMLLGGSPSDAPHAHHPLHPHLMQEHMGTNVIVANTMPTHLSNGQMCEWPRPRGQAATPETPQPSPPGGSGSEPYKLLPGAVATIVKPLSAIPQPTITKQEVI
Vif A3G: HIV-1 Vif–A3G interaction blockers – biochemical, TR-FRET, GST-Vif 1-94, biotin-A3G peptide, dose response retest, primary screen (AID 1117319); one-dose inhibition, %; IC50 in µM for titrated hits; TR-FRET GST-Vif / biotin-A3G peptide binding; higher % means a stronger effect; test concentration not given here; strong numbers were not always called active; 260,000 tested, 0.57% active;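 active means above the screen mean plus three standard deviations and confirmed in dose response; inconclusive means results disagree or hit not tested in dose response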;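 further: Vif residues 1-94 fused to GST binding biotinylated APOBEC3G peptide 110-148; 0% = full assay without inhibitor and 100% = GST in place of GST-Vif; retest series ran down from 100 µM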
Ecoli growth: E. coli growth inhibition; OD600 absorbance (test concentration not listed); Escherichia coli growth, OD600, 23 h; stronger effect = lower value; 330,000 tested, 0.21% active;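 active means OD600 absorbance below the run mean of sample wells minus 3.6 SD, in any replicate, cut at about 0.56 in these data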;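 further: stock transfer was 300 nL into about 60 µL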
MLL AF4-AF9 inh: blocks AF4 peptide binding to human AF9 | inhibition, % at 10 µM | 350,000 tested, 0.47% active | AID 651704 | AlphaScreen, biotin-AF4 peptide binding to FLAG-AF9;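 active means every replicate reaching a set inhibition limit, whatever the replicate mean, cut at about 25% in these data; inconclusive means mean inhibition reaches that limit but some replicates miss it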;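 further: 0% = plate neutral control median and 100% = total signal loss; the record names both 10 and 1 µM as test concentration; the first replicate is given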
Target sequence (P42568 whole entry, looked up): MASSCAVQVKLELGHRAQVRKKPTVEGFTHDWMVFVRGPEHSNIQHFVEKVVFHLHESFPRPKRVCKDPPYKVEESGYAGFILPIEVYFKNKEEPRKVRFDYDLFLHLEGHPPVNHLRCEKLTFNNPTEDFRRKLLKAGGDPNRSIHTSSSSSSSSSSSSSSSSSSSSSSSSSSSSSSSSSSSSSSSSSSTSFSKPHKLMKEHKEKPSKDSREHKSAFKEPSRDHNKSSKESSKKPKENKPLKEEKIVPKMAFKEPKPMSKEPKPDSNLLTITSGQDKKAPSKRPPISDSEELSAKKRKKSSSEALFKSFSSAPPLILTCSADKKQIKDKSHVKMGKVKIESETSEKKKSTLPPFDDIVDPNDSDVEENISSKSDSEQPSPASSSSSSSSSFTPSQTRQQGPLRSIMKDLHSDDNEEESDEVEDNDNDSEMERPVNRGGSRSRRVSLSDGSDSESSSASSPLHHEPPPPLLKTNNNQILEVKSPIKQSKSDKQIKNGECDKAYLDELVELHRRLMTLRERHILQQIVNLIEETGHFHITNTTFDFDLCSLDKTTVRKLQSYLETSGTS
FGF22 binding: shifts melting point of recombinant human FGF22; AID 651658; calls only at 9.99 µM; recombinant FGF22 thermal shift, SYPRO orange fluorescence; percent of sucrose octasulfate shift, DMSO zero; Q9HCT0; 340,000 tested, 1.5% active;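 active means melting point raised past a set limit in the mean and every replicate; inconclusive means no clear call; three in four hits are not shown here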
UCH37 inh: blocks the human deubiquitinase UCH37 | Q9Y5K5 | purified proteasome/UCH37, Ub-AMC cleavage fluorescence | inhibition, % (no concentration beside the values) | 330,000 tested, 0.33% active | AID 588478;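 active means mean of two replicates above 20%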;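 further: 0% = compound-free wells with enzyme and 100% = wells lacking proteasome; stock transfer was 100 nL into about 20 µL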
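Test system – human UCH37 enzyme supplied as purified proteasome complex · Incubation – 30 min preincubation with enzyme, 25 min cleavage at room temperature · Detection – AMC fluorescence from Ub-AMC cleavage, excitation 355 nm, emission 460 nm · Benchmarks – no-proteasome wells (full inhibition) and compound-free wells (no inhibition)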
RanGTP-Impb inh: disruptors of Ran-importin-beta complex formation – biochemical, FRET, CFP-Ran, YFP-importin-beta, homogeneous, primary screen; cell-free CFP-Ran/YFP-importin-beta FRET ratio; inhibition, % (test concentration not listed); 300,000 tested, 1.1% active;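 active means most replicates above 15%; inconclusive means exactly half above 15%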;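 further: 0% = DMSO wells and 100% = Ran loaded with GDP instead of GTP; wells of about 40 µL received 100 nL stock; the first replicate is given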
* hit, by the source's call.

Cn1c(=O)c2c(nc(N/N=C/c3cccs3)n2Cc2ccccc2)n(C)c1=O was read as HNF4A DNA FP -1.0, Vif A3G 21%, MLL AF4-AF9 inh 1.2, FGF22 binding inactive and RanGTP-Impb inh 0.1.
For S=c1ncc2[nH]c(=S)[nH]c2[nH]1 the results were HNF4A DNA FP -1.7, Vif A3G 12%, Ecoli growth 0.69 and UCH37 inh 9.1.
For CCn1c(C(=O)NCCCN2CCc3ccccc3C2)cc2sccc21 the results were HNF4A DNA FP 1.6, Vif A3G -4%, Ecoli growth 0.73, UCH37 inh 6.1 and RanGTP-Impb inh inconclusive.
For CC(SCC(=O)Nc1ccccc1Br)c1nc2ccccc2c(=O)[nH]1 (stereo unspecified) the results were HNF4A DNA FP 9.0, Vif A3G 3%, Ecoli growth 0.64, MLL AF4-AF9 inh 7.0, FGF22 binding inactive and UCH37 inh 1.5.
Screening O=C(Nc1ccccc1)C1=C[C@H](c2ccccc2)C[C@H](OCc2ccc(CO)cc2)O1 returned HNF4A DNA FP -5.4, Vif A3G 7%, MLL AF4-AF9 inh -4.1, FGF22 binding inactive, UCH37 inh 0.2 and RanGTP-Impb inh 3.7.
For COCC(C)NC(=O)CCc1nnc(C2(c3ccc(Cl)cc3)CCC2)o1 (stereo unspecified) the results were HNF4A DNA FP -1.3, Vif A3G 4%, Ecoli growth 0.72, UCH37 inh 1.8 and RanGTP-Impb inh -1.5.
COc1ccc(CCNC(=O)CN(c2ccc(OC)c(OC)c2)S(=O)(=O)c2ccccc2)cc1OC was read as HNF4A DNA FP -1.5, Vif A3G 2%, Ecoli growth 0.66, MLL AF4-AF9 inh -1.4, FGF22 binding inactive, UCH37 inh 1.4 and RanGTP-Impb inh 0.8.
Screening CCc1cc2c(=O)c(-c3ccc(F)cc3)c(C(F)(F)F)oc2cc1OCC(=O)O returned Vif A3G 1%, Ecoli growth 0.71, UCH37 inh 5.7 and RanGTP-Impb inh 4.3.
CC(=O)c1ccc(N2CCN(S(=O)(=O)c3csc(C(N)=O)c3)CC2)cc1 was read as HNF4A DNA FP 3.1, Ecoli growth 0.71, MLL AF4-AF9 inh -2.3, FGF22 binding inactive, UCH37 inh 4.2 and RanGTP-Impb inh -4.8.
Screening CC(=O)Nc1cc(-c2cccc(NS(C)(=O)=O)c2)cn2c(-c3cccc(C(C)=O)c3)cnc12 returned HNF4A DNA FP 7.3, MLL AF4-AF9 inh -2.2 and FGF22 binding inactive.
Screening CSc1ncnc2c1ncn2CCCNCc1ccco1 returned HNF4A DNA FP -1.5, MLL AF4-AF9 inh -1.2 and FGF22 binding inactive.
Screening Cc1onc(-c2ccccc2)c1C(=O)N(Cc1ccccn1)Cc1ccccn1 returned HNF4A DNA FP -0.9, Vif A3G -12%, Ecoli growth 0.67, MLL AF4-AF9 inh -0.5, FGF22 binding inactive, UCH37 inh 1.4 and RanGTP-Impb inh -1.7.
For COc1cccc(NC(=O)CN(C)C(=O)COc2cc(C)ccc2Cl)c1 the results were HNF4A DNA FP 2.1, Vif A3G 2%, Ecoli growth 0.7, MLL AF4-AF9 inh -0.1, FGF22 binding inactive, UCH37 inh -2.1 and RanGTP-Impb inh 7.0.
S=c1[nH]nc(-c2ccccc2)o1 was read as HNF4A DNA FP -0.1, Vif A3G -13%, Ecoli growth 0.77, UCH37 inh -1.9 and RanGTP-Impb inh 1.3.
For CN1CCCCC1(C)C(=O)NCc1cc(Cl)ccc1F (stereo unspecified) the results were HNF4A DNA FP 2.5, MLL AF4-AF9 inh -1.3 and FGF22 binding inactive.
Cc1c(NC(=O)c2cccc(S(=O)(=O)N(C)c3ccccc3)c2)c(=O)n(-c2ccccc2)n1C was read as HNF4A DNA FP 1.5, Ecoli growth 0.69, MLL AF4-AF9 inh 1.6, FGF22 binding inactive and UCH37 inh 2.5.
Screening Cc1ccc(NS(=O)(=O)c2ccc(C3CCCCC3)cc2)cc1 returned HNF4A DNA FP -6.4, Ecoli growth 0.68, MLL AF4-AF9 inh -28, FGF22 binding inactive, UCH37 inh 4.9 and RanGTP-Impb inh -2.2.
Screening CC(C)c1ccc(CN2CC(C(=O)Nc3ccccc3)CC2=O)cc1 (stereo unspecified) returned HNF4A DNA FP 1.9, Ecoli growth 0.7, MLL AF4-AF9 inh -1.4, FGF22 binding inactive, UCH37 inh 6.9 and RanGTP-Impb inh 1.5.
Screening COc1ccc2c(c1)C(=O)C1(CC2)OC1c1cccnc1 (stereo unspecified) returned HNF4A DNA FP 2.5, Vif A3G -2%, MLL AF4-AF9 inh 1.5 and FGF22 binding inactive.
Screening O=[N+]([O-])c1ccc(N=NNc2ccc([N+](=O)[O-])cc2)cc1 returned HNF4A DNA FP 55*, Vif A3G -1%, Ecoli growth 0.72, MLL AF4-AF9 inh 2.2, FGF22 binding inactive and UCH37 inh 2.2.
Screening COC(=O)C1(C)NC(=O)c2ccccc2N1 (stereo unspecified) returned HNF4A DNA FP 1.2, Vif A3G 4%, Ecoli growth 0.71, MLL AF4-AF9 inh 0.0, FGF22 binding inactive, UCH37 inh -135 and RanGTP-Impb inh 5.3.
Screening Cc1cc(O)cc(O)c1C(=O)Cc1cnn(-c2ccccc2)c1 returned HNF4A DNA FP -1.0, Vif A3G inconclusive, Ecoli growth 0.67, UCH37 inh -0.1 and RanGTP-Impb inh 0.2.
Screening Clc1cccc(NCc2nnc3n2CCCCC3)c1 returned HNF4A DNA FP 3.2, Vif A3G 1%, Ecoli growth 0.64, MLL AF4-AF9 inh -3.0, FGF22 binding inactive, UCH37 inh 1.8 and RanGTP-Impb inh -2.0.
COC(=O)c1ccccc1NC(=O)COC(=O)CO/N=C(\C)c1ccc2c(c1)OCO2 was read as HNF4A DNA FP -1.5, MLL AF4-AF9 inh -2.2, FGF22 binding inactive and RanGTP-Impb inh 0.7.

Filtered by structure, the entries above with a Cl atom
For COCC(C)NC(=O)CCc1nnc(C2(c3ccc(Cl)cc3)CCC2)o1 (stereo unspecified) the results were HNF4A DNA FP -1.3, Vif A3G 4%, Ecoli growth 0.72, UCH37 inh 1.8 and RanGTP-Impb inh -1.5.
For COc1cccc(NC(=O)CN(C)C(=O)COc2cc(C)ccc2Cl)c1 the results were HNF4A DNA FP 2.1, Vif A3G 2%, Ecoli growth 0.7, MLL AF4-AF9 inh -0.1, FGF22 binding inactive, UCH37 inh -2.1 and RanGTP-Impb inh 7.0.
For CN1CCCCC1(C)C(=O)NCc1cc(Cl)ccc1F (stereo unspecified) the results were HNF4A DNA FP 2.5, MLL AF4-AF9 inh -1.3 and FGF22 binding inactive.
Screening Clc1cccc(NCc2nnc3n2CCCCC3)c1 returned HNF4A DNA FP 3.2, Vif A3G 1%, Ecoli growth 0.64, MLL AF4-AF9 inh -3.0, FGF22 binding inactive, UCH37 inh 1.8 and RanGTP-Impb inh -2.0.

The list goes on:
For O=C(CSc1nnc(Cc2ccccc2)o1)NC1CC2CCC1C2 (stereo unspecified) the results were HNF4A DNA FP -0.6, Vif A3G -5%, Ecoli growth 0.71, UCH37 inh 0.2 and RanGTP-Impb inh -1.9.
`CCNC(=O)C1(C)CCN(C(=O)c2cccc(Cl)c2)C1` (stereo unspecified) gave HNF4A DNA FP 2.5, MLL AF4-AF9 inh -11 and FGF22 binding inactive.
Screening COc1ccccc1N1CCN(C(c2ccccn2)c2nnnn2C2CCCCC2)CC1 (stereo unspecified) returned HNF4A DNA FP 1.3, Vif A3G -3%, Ecoli growth 0.69, UCH37 inh 1.1 and RanGTP-Impb inh 0.2.
Screening CCC1Oc2ccccc2N(CC(=O)NCc2ccco2)C1=O (stereo unspecified) returned HNF4A DNA FP -0.5, Vif A3G 15%, Ecoli growth 0.7, MLL AF4-AF9 inh -2.4, FGF22 binding inactive, UCH37 inh 1.5 and RanGTP-Impb inh -1.4.
For CCOC(=O)C1(Cc2cccc(F)c2)CCN(CC(O)CO)CC1 (stereo unspecified) the results were HNF4A DNA FP -0.2, Vif A3G -2%, Ecoli growth 0.71, MLL AF4-AF9 inh 6.3, FGF22 binding inactive, UCH37 inh 3.5 and RanGTP-Impb inh -1.6.
O=C1C=C(c2ccc(F)nc2)C[C@@H](c2ccc3c(c2)OCO3)C1 was read as HNF4A DNA FP -0.9, MLL AF4-AF9 inh inconclusive, FGF22 binding inactive and UCH37 inh 4.6.
CC(C)c1c(C(=O)N/N=C/c2ccncc2)nnn1-c1nonc1N was read as HNF4A DNA FP 5.6, MLL AF4-AF9 inh -2.7, FGF22 binding inactive and RanGTP-Impb inh -0.8.
O=C(O)c1ccc(NNC(=S)Nc2cc(C(F)(F)F)ccc2Cl)cc1 was read as HNF4A DNA FP 0.0, Ecoli growth 0.68, MLL AF4-AF9 inh 5.1, FGF22 binding inactive, UCH37 inh 0.2 and RanGTP-Impb inh 6.4.
`CSc1ncc(Cl)c(C(=O)Nc2ccccc2C)n1` gave HNF4A DNA FP 3.5, Vif A3G 0%, Ecoli growth 0.69, MLL AF4-AF9 inh -0.9, FGF22 binding inactive, UCH37 inh -12 and RanGTP-Impb inh 1.0.
Screening COc1ccc(CCN(C)c2ccc(S(=O)(=O)N3CCCC3)cc2[N+](=O)[O-])cc1OC returned HNF4A DNA FP 3.8, Ecoli growth 0.69, MLL AF4-AF9 inh 11, FGF22 binding inactive, UCH37 inh 3.4 and RanGTP-Impb inh -0.1.
Screening Cc1c(C(=O)NCc2ccco2)oc2c(Cl)cccc12 returned HNF4A DNA FP -1.1, Vif A3G 2%, Ecoli growth 0.67, MLL AF4-AF9 inh -3.2, FGF22 binding inactive and UCH37 inh -0.2.
`CN1CCCN(C(=O)c2cccc(Br)c2)CC1` gave HNF4A DNA FP 1.6, Ecoli growth 0.65, MLL AF4-AF9 inh -6.3, FGF22 binding inactive, UCH37 inh 5.2 and RanGTP-Impb inh 0.4.
For CCC(=O)C1CCCN(C(=O)c2ccc(OC)c(OC3CCN(C(C)=O)CC3)c2)C1 (stereo unspecified) the results were HNF4A DNA FP -0.3, Vif A3G -13%, Ecoli growth 0.69, MLL AF4-AF9 inh -1.6, FGF22 binding inactive, UCH37 inh 3.5 and RanGTP-Impb inh 0.2.
`S=C(NCc1ccccn1)Nc1ccc(Cl)cc1` gave HNF4A DNA FP 0.6, Vif A3G 27%, Ecoli growth 0.7, UCH37 inh 1.6 and RanGTP-Impb inh 0.7.
Screening CSCCC(NC(=O)c1ccco1)C(=O)NCC1CCCCC1 (stereo unspecified) returned HNF4A DNA FP 0.9, Ecoli growth 0.71, MLL AF4-AF9 inh -6.0, FGF22 binding inactive and UCH37 inh 5.1.
`Cc1c(/C=N\NC(=O)c2ccc([N+](=O)[O-])cc2)cnn1C` gave HNF4A DNA FP 2.0, Vif A3G -3%, MLL AF4-AF9 inh -0.3, FGF22 binding inactive and RanGTP-Impb inh 1.2.
Screening CCOc1ccc(NS(=O)(=O)c2cccc(C(=O)NCC3(N(C)C)CCCCC3)c2)cc1 returned HNF4A DNA FP -0.9, Vif A3G -1%, Ecoli growth 0.68, MLL AF4-AF9 inh 3.7 and UCH37 inh 4.0.
`CCOC(=O)C1CCCN(C(=O)c2cccc(C(F)(F)F)c2)CC1` (stereo unspecified) gave HNF4A DNA FP 0.6, MLL AF4-AF9 inh -1.1 and FGF22 binding inactive.
O=C(C1CCCO1)N(Cc1ccccc1)c1ccccc1 (stereo unspecified) was read as HNF4A DNA FP -2.2, Vif A3G 0%, Ecoli growth 0.71, MLL AF4-AF9 inh 3.1, FGF22 binding inactive, UCH37 inh -1.7 and RanGTP-Impb inh -17.
Screening c1ccc(-n2c(Sc3cnccn3)nnc2-c2cccs2)cc1 returned HNF4A DNA FP -4.9, Vif A3G inconclusive, Ecoli growth 0.67, UCH37 inh 0.6 and RanGTP-Impb inh 1.6.

A portion of the library (hit frequency here may not be typical).
